RecA splice inh = inhibitors of M. tuberculosis RecA intein splicing; inhibition, %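 (about 9 µM by stock and volumes)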; P9WHJ3; hit rate 0.75% among 290,000; cell-free RecA intein splicing, fluorescence; in the data active = inhibition above about 30%; inconclusive = no clear call, values can overlap the other calls;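 also: 0% = vehicle wells and 100% = reference inhibitor control wells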
Target sequence (P9WHJ3 whole entry, looked up, canonical isoform): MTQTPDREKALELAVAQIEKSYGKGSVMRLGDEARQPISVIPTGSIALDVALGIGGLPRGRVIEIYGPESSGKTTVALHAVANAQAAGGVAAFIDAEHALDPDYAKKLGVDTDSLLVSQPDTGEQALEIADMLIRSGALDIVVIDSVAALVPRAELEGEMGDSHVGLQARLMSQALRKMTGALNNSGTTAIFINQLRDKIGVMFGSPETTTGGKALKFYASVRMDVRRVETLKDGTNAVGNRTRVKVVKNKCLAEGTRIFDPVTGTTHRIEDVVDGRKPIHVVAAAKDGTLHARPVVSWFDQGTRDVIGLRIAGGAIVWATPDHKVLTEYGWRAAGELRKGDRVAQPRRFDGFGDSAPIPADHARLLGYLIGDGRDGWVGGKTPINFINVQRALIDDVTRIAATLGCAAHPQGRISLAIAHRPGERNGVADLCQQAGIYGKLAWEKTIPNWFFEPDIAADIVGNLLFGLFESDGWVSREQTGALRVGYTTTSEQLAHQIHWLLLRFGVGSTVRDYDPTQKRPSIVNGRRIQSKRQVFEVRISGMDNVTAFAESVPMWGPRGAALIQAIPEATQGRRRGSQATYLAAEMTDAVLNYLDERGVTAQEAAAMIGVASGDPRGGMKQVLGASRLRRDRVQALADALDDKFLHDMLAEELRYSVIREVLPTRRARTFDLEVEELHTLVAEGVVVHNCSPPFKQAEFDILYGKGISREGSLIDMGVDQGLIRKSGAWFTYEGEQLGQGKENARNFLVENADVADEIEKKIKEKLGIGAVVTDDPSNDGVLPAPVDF
Arbovirus anti = antivirals against arbovirus infection; inhibition, % at 10 µM; hit rate 0.37% among 200,000; arbovirus infection cell-based antiviral screen; AID 1251;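 active = inhibition from about 30%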;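 also: bluetongue infection of BSR cells; cell survival read as ATP light after 72 h; 0% = infected wells without compound and 100% = uninfected wells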
Mtb H37Rv = M. tuberculosis H37Rv growth inhibitors, H37Rv strain (AID 1626) | M. tuberculosis H37Rv growth inhibition; higher % means a stronger effect | inhibition, % at 10 µM; hits with a dose series show IC50 in µM | hit rate 0.95% among 220,000;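 active = confirmed in a dose series; inconclusive = inhibition above 80% but not taken into the dose series; inactive = below 80% or under 30% at every dose of the series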;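 also: bacteria incubated seven days before Alamar blue readout; 0% = bacteria only wells and 100% = bacteria with antibiotic wells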
Arbovirus anti repeat = second read-out of Arbovirus anti, no call of its own (marks repeat the call); inhibition, %; measured here: 10K subset replicate screen; many hits read low in the repeat;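 first of two repeat runs on a subset; 0% = infected and 100% = uninfected wells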
Active calls of the source: *; u = inconclusive; x = not tested or not shown.

SMILES	RecA splice inh	Arbovirus anti	Mtb H37Rv	others
C=CCn1c(=N)c(C(=O)OCC)cc2c(=O)n3cc(C)ccc3nc21	x	11	x	Arbovirus anti repeat=5
Cn1c(C(=O)N2CCN(c3ccc(Cl)cc3)CC2)cc2c(=O)n(C)c3ccccc3c21	x	8	x	Arbovirus anti repeat=-2
CC1CC(C)CN(Cc2nc3c(c(=O)n(C)c(=O)n3C)n2Cc2ccccc2Cl)C1 (stereo not drawn)	x	-6	x	Arbovirus anti repeat=-3
CCOc1cc2c(cc1OCC)C(c1ccc(O)c(OC)c1)NCC2 (stereo not drawn)	x	3	x	Arbovirus anti repeat=-3
CC1CC(C)CN(CCCNC(=O)CNC(=O)Cn2ccc3ccccc3c2=O)C1 (stereo not drawn)	x	8	x	Arbovirus anti repeat=-4
CCN1CCN(C2=CC3=CC(=C(C#N)C#N)CCC3CC2)CC1 (stereo not drawn)	x	-10	x
CC(C)CC(NC(=O)C(COC(C)(C)C)NC(=O)C(Cc1ccc(O)cc1)NC(=O)C(CO)NC(=O)C(Cc1c[nH]c2ccccc12)NC(=O)C(Cc1cnc[nH]1)NC(=O)C1CCC(=O)N1)C(=O)N[C@@H](CCCN=C(N)N)C(=O)N1CCCC1C(=O)NNC(N)=O (stereo partly drawn)	x	x	-6%
CN(CCCC[C@H](CNCc1ccc(-c2ccccc2)cc1)N1C[C@H](c2ccccc2)N(CCc2ccc(Cl)c(Cl)c2)C(=O)C1=O)Cc1ccc(-c2ccccc2)cc1	x	x	5.1µM*
COC(=O)C1C=C2c3cccc4[nH]cc(c34)CC2N(C)C1 (stereo not drawn)	x	x	5%
C[n+]1cccc2cccc([O-])c21	x	x	-14%
CN(C)S(=O)(=O)c1ccccc1N=C=S	x	x	-3%
O=c1[nH][nH]c2c(N=Cc3ccccc3O)ccc(F)c12	x	x	0%
COc1cc(OC)c2c(-c3ccccc3)cc(=O)oc2c1C(CC(=O)N1CCN(c2ccccc2)CC1)c1ccc2c(c1)OCO2 (stereo not drawn)	x	x	-6%
Cc1ccc(N=Nc2c(O)c3ccccc3[nH]c2=O)c(S(=O)(=O)N(C)C)c1	x	x	3%
CCCCCCNC(=O)n1cc(F)c(=O)[nH]c1=O	x	x	u
O=c1cc2oc3cc(O)c(O)cc3c(-c3ccccc3O)c-2cc1O	x	x	-3%
CC(=O)N1C=Cc2c(c(C)c3c([nH]c4ccccc43)c2C)C1	x	x	u
COc1ccc2c(c1)c1ccc3c(c1n2C)C(=O)C=CC3=O	x	x	-2%
O=C(O)c1ccccc1SC1CC(=O)N(c2cccc3ccccc23)C1=O (stereo not drawn)	x	x	-1%
O=C(/C=C/c1cccnc1)/C=C/c1cccnc1	x	x	0.91µM*
CCCn1nc(NC(=O)c2ccco2)c2cc3cc(C)ccc3nc21	x	x	9%
CCN(CC)C(C)C#CCC(c1ccccc1)c1ccccc1 (stereo not drawn)	x	x	12%
COc1cc(C2Oc3ccccc3C=C2[N+](=O)[O-])cc(OC)c1OC (stereo not drawn)	x	x	2%
COc1ccccc1Oc1ccc(N2CC(C(=O)OCC(=O)c3ccc(F)cc3)CC2=O)cc1 (stereo not drawn)	1.7	x	x
COCc1ccc(C(=O)NC2CCCc3c2cnn3-c2cc(C)cc(C)c2)s1 (stereo not drawn)	9.1	x	x
COC(=O)c1ccccc1NC(=O)c1onc(C)c1Cl	-0.3	x	x
Cc1ccc(S(=O)(=O)N(Cc2ccc([N+](=O)[O-])cc2)C(=O)N2CCN(C)CC2)cc1	-0.8	x	x
COc1cccc(C(=O)N2CCC(C(=O)N3CCN(C)CC3)CC2)c1	0.5	x	x
CN(C)CC(CCC(CN(C)C)C(O)(c1ccccc1)c1ccccc1)C(O)(c1ccccc1)c1ccccc1 (stereo not drawn)	1.5	x	x
COc1ccc(C2=NN(C(=O)c3ccccc3)C(c3ccc(OC)c(OC)c3)C2)c(O)c1 (stereo not drawn)	0.5	x	x
Cn1cc(C(=O)Nc2ccccn2)c(=O)c2ccccc21	0.0	x	x
Cc1nn(Cc2ccc(C(=O)N3CCCC3)o2)c(C)c1[N+](=O)[O-]	-5.4	x	x
COc1cccc(CN2CC(C(=O)N(C)Cc3nc(C)cs3)CCC2=O)c1 (stereo not drawn)	-5.6	x	x
O=C(NC1CCCCCCC1)c1ccc(Br)cc1	0.1	x	x
CCn1cc(/C=C(\NC(=O)c2ccccc2Cl)C(=O)N2CCN(C)CC2)c2ccccc21	-2.5	x	x
O=C(NCCc1cccc(Cl)c1)c1ccc(OC2CCN(Cc3ccccn3)CC2)cc1	4.5	x	x
Cc1ccc(/C=N/NC(=O)c2cc3c(ccc4ccccc43)o2)o1	-5.1	x	x
Cn1ncc([N+](=O)[O-])c1C(=O)N1CCCCCC1	-6.4	x	x
Cc1cc(C)c(C(=O)NC2CC(C)(C)Cc3c2cnn3-c2cccc(F)c2)[nH]1 (stereo not drawn)	5.2	x	x
COC(CNC(=O)CCCn1nnnc1CN1CCOCC1)c1cccs1 (stereo not drawn)	5.3	x	x
C/C(=N\NC(=O)c1c(Cl)cnn1C)c1cccnc1	4.5	x	x
COc1ccc(CCN2CC(C(=O)N(C)CCc3cn[nH]c3)CCC2=O)cc1 (stereo not drawn)	9.1	x	x
COc1ccc(-c2c(C)oc3c(CN4CCCC(C)C4)c(O)ccc3c2=O)cc1OC (stereo not drawn)	-0.1	x	x
CCOC(=O)c1cnc2c(C)c(C)ccc2c1NCCN1CCOCC1	5.1	x	x
COc1ccc2ccccc2c1/C=N/NC(=O)c1cccc(C)c1	-0.9	x	x
COc1ccc(CN2CCNC(=O)C2CC(=O)NCCc2cnccn2)cc1C (stereo not drawn)	-1.6	x	x
Cc1nnc(SCC(=O)Nc2ccc3c(c2)OCO3)s1	2.8	x	x
CC(C)c1cc(CNC(=O)c2cc(COc3cncc(Cl)c3)on2)on1	-0.1	x	x
COc1ccc(NC2CCCN(C(=O)c3cccc(N(C)C)c3)C2)cc1 (stereo not drawn)	3.8	x	x
C=CCn1c(C23CC4CC(CC(C4)C2)C3)n[nH]c1=S	0.4	x	x

(continued)
SMILES	RecA splice inh	Arbovirus anti	Mtb H37Rv	others
O=S(=O)(Nc1cccc(-c2ccc(N3CCCCCC3)nn2)c1)c1ccccc1Cl	-0.4	x	x
C/C(=N\NC(=O)c1cccc2ccccc12)c1cccnc1	-2.7	x	x
CCc1nc2sc3c(c2c(=S)[nH]1)CC(C)(C)OC3	-0.2	x	x
COCCn1c(CN2CCN(C(c3ccccc3)c3ccccc3)CC2)nc2c1c(=O)n(C)c(=O)n2C	-1.1	x	x
Cc1cc(C)cc(N(C(=O)c2ccccn2)C(C(=O)NC2CCCCC2)c2ccncc2)c1 (stereo not drawn)	3.5	x	x
COc1ccc(NC(=O)C2CCN(C(=O)C3CC(=O)N(c4ccc(C)cc4)C3)CC2)cc1 (stereo not drawn)	-3.2	x	x
COc1ccc(OCC(=O)Nc2ccc(NC(=O)c3ccco3)c(C)c2)cc1	1.1	x	x
Cc1ccc(NS(=O)(=O)c2ccc(NC(=O)C3CC3)cc2)cc1C	-1.4	x	x
Cc1cccc(NC(=O)CSc2nnnn2C2CCCC2)c1	0.0	x	x
O=C(N/N=C/c1ccc[nH]1)c1c[nH]c2ccccc12	-10	x	x
O=C(CCS(=O)(=O)c1ccc(F)cc1)Nc1nnc(-c2cccs2)o1	0.0	x	x
Cc1ccc(C(=O)COC(=O)CN2C(=O)C3C4CCC(C4)C3C2=O)cc1C (stereo not drawn)	2.0	x	x
CCn1ncc(Br)c1C(=O)Nc1cc(C)on1	-0.1	x	x
COc1ccc(CNc2ncc(-c3ccc(Br)cc3)n2C)cc1OC	-7.9	x	x
O=C(N/N=C/c1ccc([N+](=O)[O-])o1)c1ccccc1-n1cccc1	-1.7	x	x
Cc1ccc(S(=O)(=O)N(CC(=O)NCc2ccccc2)C(=O)N2CCN(C)CC2)cc1	-2.8	x	x
COc1ccccc1CNc1nc(C)c(C(=O)N(C)C)s1	1.0	x	x
CCOc1ccc(NC(=O)CNC(=O)Cc2ccccc2)cc1	2.2	x	x
CCOc1ccc(N(CC(=O)NC2CCCCC2)C(=O)Cn2nnc(-c3ccc(C)o3)n2)cc1	2.9	x	x
Cc1c(CNCCc2ccc(Cl)cc2)c(C(=O)O)c(C)n1-c1ccccc1	5.8	x	x
CCn1cc(/C=C(\NC(=O)c2ccccc2)C(=O)N2CCOCC2)c2ccccc21	-0.9	x	x
Cn1c(=S)[nH]c2sc3c(c2c1=O)CCC(C(C)(C)C)C3 (stereo not drawn)	-1.8	x	x
CCCSc1nc2sc3c(c2c(=O)n1-c1ccc(OC)cc1)CCN(C)C3	-1.0	x	x
O=[N+]([O-])c1cc([N+](=O)[O-])c2oc(-c3ccccc3)c(Br)c2c1O	30*	x	x
S=C1SCN(Cc2ccccc2)CN1Cc1ccccc1	7.3	x	x
Cc1cccn2c(CNCCc3ccco3)c(C(=O)N3CCOCC3)nc12	-4.5	x	x
CCCCSc1nc2sc3c(c2c(=O)n1-c1ccc(OC)cc1)CCN(C)C3	9.1	x	x
Cc1cccc(NC(=O)/C(C#N)=C/c2ccccc2O)n1	3.9	x	x
O=C(Nc1ccnn1C1CCN(CC2CC=CCC2)CC1)c1ccccc1 (stereo not drawn)	6.1	x	x
COc1cccc(/C=N/NC(=O)NC23CC4CC(CC(C4)C2)C3)c1O	5.3	x	x

Among those listed so far, 12 contain an NH in an aromatic ring.
SMILES	RecA splice inh	Arbovirus anti	Mtb H37Rv	others
CC(C)CC(NC(=O)C(COC(C)(C)C)NC(=O)C(Cc1ccc(O)cc1)NC(=O)C(CO)NC(=O)C(Cc1c[nH]c2ccccc12)NC(=O)C(Cc1cnc[nH]1)NC(=O)C1CCC(=O)N1)C(=O)N[C@@H](CCCN=C(N)N)C(=O)N1CCCC1C(=O)NNC(N)=O (stereo partly drawn)	x	x	-6%
COC(=O)C1C=C2c3cccc4[nH]cc(c34)CC2N(C)C1 (stereo not drawn)	x	x	5%
O=c1[nH][nH]c2c(N=Cc3ccccc3O)ccc(F)c12	x	x	0%
Cc1ccc(N=Nc2c(O)c3ccccc3[nH]c2=O)c(S(=O)(=O)N(C)C)c1	x	x	3%
CCCCCCNC(=O)n1cc(F)c(=O)[nH]c1=O	x	x	u
CC(=O)N1C=Cc2c(c(C)c3c([nH]c4ccccc43)c2C)C1	x	x	u
Cc1cc(C)c(C(=O)NC2CC(C)(C)Cc3c2cnn3-c2cccc(F)c2)[nH]1 (stereo not drawn)	5.2	x	x
COc1ccc(CCN2CC(C(=O)N(C)CCc3cn[nH]c3)CCC2=O)cc1 (stereo not drawn)	9.1	x	x
C=CCn1c(C23CC4CC(CC(C4)C2)C3)n[nH]c1=S	0.4	x	x
CCc1nc2sc3c(c2c(=S)[nH]1)CC(C)(C)OC3	-0.2	x	x
O=C(N/N=C/c1ccc[nH]1)c1c[nH]c2ccccc12	-10	x	x
Cn1c(=S)[nH]c2sc3c(c2c1=O)CCC(C(C)(C)C)C3 (stereo not drawn)	-1.8	x	x

(more compounds)
SMILES	RecA splice inh	Arbovirus anti	Mtb H37Rv	others
CCOC(=O)c1ccc(C(=S)N2CCCC2)cc1	0.1	x	x
CCCCc1c(C)c(C#N)c2nc3ccccc3n2c1NCCN(C)C	-68	x	x
COc1ccc(CCNC(=O)C2CCC(=O)N(CC3CCCCC3)C2)cc1 (stereo not drawn)	1.3	x	x
Cc1oc(-c2ccc(F)cc2)nc1CN1CCCC(C(=O)N2CCOCC2)C1 (stereo not drawn)	1.7	x	x
COc1ccccc1NS(=O)(=O)c1ccc2c(c1)OCCO2	0.7	x	x
COc1ccc(CCN2CC(C(=O)NCc3cc(C)on3)CCC2=O)cc1 (stereo not drawn)	2.3	x	x
COc1ccc(/C=N/NC(=O)c2cccc(C(=O)N/N=C/c3ccc(OC)c(OC)c3)n2)cc1OC	-2.8	x	x
C=CCn1c(=O)c2ccccc2n2c(SCC(=O)N(C)C)nnc12	0.3	x	x
O=C(CCC1CCCCC1)Nc1nnc(C(F)(F)F)s1	-1.5	x	x
COc1ccc(C(=O)Nc2cccc(/C(C)=N\NC(=O)c3ccoc3C)c2)cc1OC	-4.5	x	x

Two entries drawn at random from the list so far, as already listed:
SMILES	RecA splice inh	Arbovirus anti	Mtb H37Rv	others
COc1ccc(CCNC(=O)C2CCC(=O)N(CC3CCCCC3)C2)cc1 (stereo not drawn)	1.3	x	x
COc1ccc(CCN2CC(C(=O)NCc3cc(C)on3)CCC2=O)cc1 (stereo not drawn)	2.3	x	x

Two successive records already listed, quoted:
SMILES	RecA splice inh	Arbovirus anti	Mtb H37Rv	others
O=C(CCC1CCCCC1)Nc1nnc(C(F)(F)F)s1	-1.5	x	x
COc1ccc(C(=O)Nc2cccc(/C(C)=N\NC(=O)c3ccoc3C)c2)cc1OC	-4.5	x	x

More compounds:
SMILES	RecA splice inh	Arbovirus anti	Mtb H37Rv	others
O=C(Nc1ccc(NC(=O)C2CCCCC2)nc1)c1cccc(F)c1	0.8	x	x
COc1ccc(C(=O)NCCCn2cccn2)cc1OC1CCN(C(C)=O)CC1	-3.8	x	x
O=C(Cn1cccn1)N1CCCC(N2CCN(c3cccc(C(F)(F)F)c3)CC2)C1 (stereo not drawn)	2.1	x	x
Cn1ccc(C(=O)OCC(=O)Nc2ccccc2Cl)n1	1.0	x	x

This is a subset. The share of hits here may be higher or lower than overall.
